Sa growth 42C: inhibitors of Staphylococcus aureus growth at 42 °C. S. aureus RN4220 growth, OD600, 20 h; stronger effect = lower value. relative growth, % (test concentration not listed). actives 0.53% (n = 170,000). AID 720641;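 active = growth at 42 °C up to 50% and 20 or more points under that at 30 °C, or under 10% at both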;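 note: 300 nL library stock went into each well; scaled to the means of positive and negative controls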
GIV-Gai inh: inhibitors of GIV GBA-motif binding to rat Galpha-i3; P08753; Galpha-i3/FITC-GIV peptide fluorescence polarization, 90 min; stronger effect = lower value; scaled: aluminum fluoride 0%, vehicle 100%; percent of control (FP), % (concentration not given with the values); actives 0.42% (n = 210,000);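 active = replicate mean at 85% of control or lower, very high polarization wells dropped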;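 note: wells of about 15 µL received 100 nL stock; the first replicate is given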
Target sequence (P08753 whole entry, looked up): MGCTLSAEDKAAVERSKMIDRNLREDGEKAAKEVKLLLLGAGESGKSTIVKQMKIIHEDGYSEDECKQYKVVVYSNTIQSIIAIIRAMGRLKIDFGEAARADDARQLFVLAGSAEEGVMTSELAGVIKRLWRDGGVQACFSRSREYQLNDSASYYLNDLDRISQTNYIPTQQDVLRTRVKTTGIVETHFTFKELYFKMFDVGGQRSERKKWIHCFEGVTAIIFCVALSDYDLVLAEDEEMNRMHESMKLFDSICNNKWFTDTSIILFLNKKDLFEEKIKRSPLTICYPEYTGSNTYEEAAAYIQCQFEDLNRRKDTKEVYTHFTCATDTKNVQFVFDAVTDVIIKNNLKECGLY
HCMV UL50-53 inh: cytomegalovirus nuclear egress complex inhibition; HTRF UL50-UL53 interaction, normalized percent inhibition; inhibition, % (test concentration not listed); actives 0.15% (n = 190,000);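 active = both replicates at 50% or more, plus weaker picks with an unusually low signal ratio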;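 note: stock transfer was 100 nL into about 20 µL; 0% = negative control wells and 100% = wells with untagged competitor protein; inactives centre near -12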
Sa growth 42C second temp: second read-out of Sa growth 42C, no call of its own (marks repeat the call); relative growth, %; measured here: growth at 30 °C;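 optical density after 20 h as mean of two plates; 100% = untreated growth and lower means inhibition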
Active calls of the source: *; · = not tested or not shown; & = joins results of further samples.

SMILES	Sa growth 42C	Sa growth 42C second temp	GIV-Gai inh	HCMV UL50-53 inh
O=C(Nc1nncs1)c1ccccc1NS(=O)(=O)c1cccs1	102	69	·	-3
CCN(CC)S(=O)(=O)c1ccc(C)c(C(=O)Nc2cc(C)on2)c1	102	103	105	21
CC(C(=O)O)n1c2ccccc2c2cnn(C)c(=O)c21 (stereo not drawn)	101	87	98	·
COc1ccc(-c2cn3nc(N4CCCC(C(=O)Nc5ccc(C)c(C)c5)C4)sc3n2)cc1 (stereo not drawn)	102	92	102	·
CCOC(=O)c1ccc(S(=O)(=O)N2CCN(CN3C(=O)CCC3=O)CC2)cc1	104	101	·	-20
Cc1ccccc1C1CCCN1S(=O)(=O)c1cnc[nH]1 (stereo not drawn)	·	·	97	-20
CS(=O)(=O)C1=NSC2=NC(=O)/C(=C\c3ccco3)C(=N)N21	100	85	105	-91
CCOC(=O)c1c[nH]n(-c2ccccc2)c1=O	112	92	·	-19
O=C1CCC(=O)N1CNc1ccccn1	82	92	103	-28
CC(O)c1cccc(NC(=O)c2cnn3c2NC(c2cccs2)CC3C(F)(F)F)c1 (stereo not drawn)	89	75	104	·
CN(C)S(=O)(=O)N1CCC(n2c(C(F)(F)F)nc3cccnc32)CC1	110	95	99	·
Cc1ccc(S(=O)(=O)N(C#N)c2nc(C)cc(C)n2)cc1	86	91	101	-37
O=C(Nc1nnc(-c2ccco2)o1)C1=COCCO1	88	83	103	-17
NC(=O)c1c(/N=C/c2ccccc2Cl)sc2c1CCCC2	104	73	96	-4
CCOC(=O)c1c(-c2ccccc2)csc1N	103	104	·	7
CC1CS(=O)(=O)N(c2ccc(S(=O)(=O)N3CCCC3)cc2)C1=O (stereo not drawn)	·	·	105	12
CSc1ncc(C(=O)NCc2ccc(C)cc2)c(-c2ccccc2)n1	128	101	99	·
Cc1ccccc1Cn1c2ccccc2c2cn[nH]c(=O)c21	114	99	103	4
COC(=O)c1ccc(C2CC(=O)NC3=C2C(=O)CCC3)cc1 (stereo not drawn)	·	·	98	-14
CCN1CCCC1CNC(=O)c1ccc(N(C)S(=O)(=O)c2ccc(C)cc2)cc1 (stereo not drawn)	116	106	·	-7
COc1ccc(C(=O)Oc2c(Sc3ccc(Cl)cc3)c(C)nn2C(C)(C)C)cc1OC	101	89	102	2
O=C(Nc1ccc(-c2cn3c(n2)SCC3)cc1)C1CC1	99	82	107	6
NC(N)=NC(N)=NCc1ccccc1	88	95	97	·
CC(=O)NC(c1ccco1)c1c(O)ccc2ccccc12 (stereo not drawn)	89	100	97	-7
O=S1(=O)CCC(Nc2ccccc2)C1 (stereo not drawn)	105	83	·	-10
CC(C)OCCCNC(=O)c1nn(C)c2c1CSc1ccccc1-2	86	90	102	-14
COC(=O)c1c(NC(=O)C(C)Oc2ccc(Cl)cc2Cl)sc2c1CCCC2 (stereo not drawn)	96	91	104	-33
CC(CC(=O)N1CCC(Cc2ccccc2)CC1)CC1=NS(=O)(=O)c2ccccc2N1 (stereo not drawn)	·	·	102	-28
CC1(C)CC(=O)C=C(NNC(=O)c2cccnc2)C1	104	98	·	15
O=C(Nc1ccc2nc(-c3ccccn3)[nH]c2c1)c1ccccc1F	104	87	105	-3
Cc1cc(NC2CCCCC2)n2nc(C)c(-c3ccc(F)cc3)c2n1	·	·	106	-13
O=C1COc2ccc(C(=O)CSc3nnc(Cc4cccs4)n3Cc3ccco3)cc2N1	64	79	·	-18
COc1ccc(CNC(=O)CN2C(=O)COc3ccc(S(=O)(=O)N4CCOCC4)cc32)cc1	106	83	112	·
Cc1cc(C)cc(-n2ccnc2SCC(=O)Nc2ccccc2F)c1	98	72	101	·
Cc1nn(-c2ccccc2)c(C)c1-c1nc(-c2ccc(C(C)(C)C)cc2)no1	102	90	104	-29
COc1ccc(OC)c(CNC(=O)CSc2nnc(C(=O)Nc3ccc(Cl)cc3)s2)c1	·	·	96	23
O=C(Cc1ccccc1)N(Cc1cccnc1)c1nc2ccc(F)cc2s1	164	93	104	·
CCOC(=O)CNc1ncnc2onc(-c3ccc(F)cc3)c12	97	100	103	6
Cc1cccc(NC(=O)Cn2cnc3c2c(=O)n(C)c(=O)n3C)c1C	·	·	98	-17
O=C(O)CCC(=O)N1N=C(c2c(-c3ccccc3)c3cc(Cl)ccc3[nH]c2=O)CC1c1ccccc1 (stereo not drawn)	·	·	101	-15
O=C(Cn1ncc2c(Cl)cccc21)NCc1cccc(Cl)c1	95	90	104	10
Cc1ccc(NC(=O)NC2CC(=O)N(c3ccc4c(c3)OCCO4)C2)cc1C (stereo not drawn)	102	91	105	-14
Cn1nnnc1Sc1c(-c2ccccc2)c2ccc(Cl)cc2[nH]c1=O	95	95	107	9
Cc1ccc(C(=O)Oc2cccc(Cl)c2)cc1	84	96	·	-24
CCOC(=O)c1cc(C(C)(C)C)oc1CN	98	82	103	-9
Cn1c(=O)c2c(nc(N3CCCCCC3)n2Cc2cccc(Br)c2)n(C)c1=O	·	·	103	-8
O=C1CS/C(=N\N=C/c2ccccc2)N1	109	110	100	-22
COC(=O)c1c(C)oc2ccc(OC)cc12	107	97	101	12
Cc1nn(-c2ccccc2)c2nc(-c3ccccc3)cc(C(=O)NCc3ccco3)c12	99	93	·	5
CN(C)c1ccc(CNC(=O)c2sc3ncccc3c2-n2cccc2)cc1	74	91	103	·
Cc1c(CNC2CCCCCC2)c(C(=O)O)c(C)n1Cc1ccc(F)cc1Cl	109	91	100	-16
Cc1cc(C)n(CCc2nc3c4ccccc4n(CC(=O)Nc4ccc(Cl)cc4F)c(=O)n3n2)n1	103	80	100&101	5&-19
COc1ccccc1N1CCN(C(=O)c2cnn(-c3cccc(Cl)c3)c2C2CCN(C(=O)OC(C)(C)C)CC2)CC1	91	83	103	·
C=CCOc1ccc(Oc2nc(N(C)C)nc(N(C)C)n2)nn1	·	·	107	-13
Cc1c(C(=O)NC2CCC(C)CC2)oc2c1-c1[nH]ncc1CC2 (stereo not drawn)	·	·	101	10
OCCNC1CCCc2ccccc21 (stereo not drawn)	102	95	106	-13
O=C(CC1C(=O)N2CCNC2=C1C(=O)c1ccc(Cl)cc1)Nc1ccccc1 (stereo not drawn)	82	90	·	-25
COC(=O)/C(=C/N(C)C)Sc1cc(C)c(Cl)cc1Cl	104	97	100	9
COc1cc(CN2CCSCC2)ccc1O	106	102	96	-2
Cc1ccc(SC(=O)c2cnn(C)c2-n2cccc2)cc1	84	86	96	-13
Next section
SMILES	Sa growth 42C	Sa growth 42C second temp	GIV-Gai inh	HCMV UL50-53 inh
O=C(NC1CCCC1)C1CCN(c2ccc(Cl)cc2)C1=O (stereo not drawn)	·	·	105	-13
COc1cccc(NC(=O)C(c2ccccc2)N2CC(C)OC(C)C2)c1 (stereo not drawn)	106	88	·	26
CC1CCCN(C(=O)CSc2nc3cc(Cl)ccc3o2)C1 (stereo not drawn)	85	84	·	-20
CCC(C)n1nnc2cc(S(=O)(=O)N(C)CC(=O)N3CCN(c4cc(C)ccc4C)CC3)ccc21 (stereo not drawn)	·	·	110	-13
O=C(O)CCC(=O)N1N=C(c2ccccc2)CC1c1ccc2nccnc2c1 (stereo not drawn)	116	75	103	-38
COc1c2occc2c(OC)c2c(=O)cc(C(F)(F)C(F)(F)F)oc12	89	88	103	-27
COc1ccc(C(O)C(F)(F)F)cc1 (stereo not drawn)	86	102	99	1
Cc1ccc(C)c(N2CCN(C(=O)CCn3c(=O)[nH]c4ccccc4c3=O)CC2)c1	104	99	105	·
CCN(C(=O)C1CCCO1)C1CCCCC1 (stereo not drawn)	104	94	95	-5
CCN1C(C)=C(C)S/C1=C1\SC(=S)N(C2CCCCC2)C1=O	111	103	94	-24
CC(C)Oc1ccc(C2Oc3ccc(Br)cc3C3CC(c4ccccc4)=NN32)cc1 (stereo not drawn)	·	·	106	-7
O=C(Cn1c(-c2cccs2)cc2ccccc21)NCCCN1CCN(c2ccc(F)cc2)CC1	106	108	109	·
CCCCN(CC)CCNC(=O)C1=C(C)C(=O)OC12CCCCC2	·	·	99	-5
Cc1cc(C(=O)CSCCCn2c(=O)[nH]c3ccccc32)c(C)n1C1CC1	115	82	·	-8
CC(=O)c1ccc(NC(=O)CCc2c(C)nn(-c3ccc(N4CCOCC4)nn3)c2C)cc1	85	88	100	·
N#Cc1ccc(C#CCOC(=O)Nc2ccccc2)cc1	102	77	97	-8
Cc1cccc(CNC(=O)CN2C(=O)CSc3ncccc32)c1	·	·	103	-10
Clc1ncnc2c1ncn2C1CCCCO1 (stereo not drawn)	94	80	·	-16
Cc1ccc2nc(SCC(=O)NC(N)=O)[nH]c2c1	92	91	·	-13
C/C(=C\C(=O)c1ccccc1)NCc1ccccc1	85	97	98	1

Single values from the results shown.
In Sa growth 42C second temp, `COc1c2occc2c(OC)c2c(=O)cc(C(F)(F)C(F)(F)F)oc12` has 88
In GIV-Gai inh, `C/C(=C\C(=O)c1ccccc1)NCc1ccccc1` has 98
In Sa growth 42C second temp, `Cc1ccc2nc(SCC(=O)NC(N)=O)[nH]c2c1` has 91
In HCMV UL50-53 inh, `COc1ccc(C(O)C(F)(F)F)cc1` (stereo not drawn) has 1
In HCMV UL50-53 inh, `CCN(C(=O)C1CCCO1)C1CCCCC1` (stereo not drawn) has -5
In HCMV UL50-53 inh, `Cc1cc(C(=O)CSCCCn2c(=O)[nH]c3ccccc32)c(C)n1C1CC1` has -8

(continued)
SMILES	Sa growth 42C	Sa growth 42C second temp	GIV-Gai inh	HCMV UL50-53 inh
C=CCSc1ncnc2nc[nH]c12	·	·	101	-10
Cc1ccc(S(=O)(=O)N2CCCCC2)cc1C(=O)c1nccn1C	99	94	·	-13
Cc1cc(C)c(Cn2c(S(=O)(=O)Cc3ccccc3)nc3ccccc32)c(C)c1	88	93	96	·
CC(=O)NCc1ccco1	90	96	·	-10
O=C(Nc1ccc(F)cc1F)c1ccc2c(c1)C(=O)N(Cc1ccco1)C2=O	83	69	111	-16
CSc1n[nH]c(-c2ccco2)c1C#N	103	81	103	-1
Cc1ccc(NC(=O)Nc2nnc(N(C)Cc3ccccc3)s2)c(C)c1	92	80	100	1
CCCCC(=O)n1c(=O)oc2ccc(C(C)(C)C)cc21	99	79	101	-10
Cc1ccccc1-c1noc(-c2ccc(N3CCCCC3)c([N+](=O)[O-])c2)n1	101	88	111	-1
COc1ccc(C(C)(C)C)cc1S(=O)(=O)N1CCN(c2cc(N(C)C)nc(C)n2)CC1	·	·	99	-28
CCC(C)=C(C(=O)OC)C(=O)OC	108	86	102	-23
COc1ccc(OC)c(CCNc2ncnc3onc(C)c23)c1	98	100	107	·
Cc1ccc(CSc2nncn3c2cc2sccc23)cc1	112	86	104	·
Cc1oc2ncn(Cc3ccccc3Cl)c(=O)c2c1C	·	·	105	-31
O=C(COC(=O)c1ccco1)NC1CCCc2ccccc21 (stereo not drawn)	94	92	·	-19
Cc1cccc(-c2nnc(C3CCN(S(=O)(=O)c4cccc(Cl)c4)CC3)o2)c1	105	86	103	-41
O=c1c2ccccc2n(Cc2cccc(F)c2)c(=O)n1Cc1ccccc1Cl	97	97	102	-3
CC1CCCCC1NC(=O)c1ccc(CS(=O)(=O)Cc2ccc(Cl)cc2)o1 (stereo not drawn)	84	85	102	0
Cc1cccc2sc(NC(=O)CN(C)S(=O)(=O)c3cccs3)nc12	111	103	109	2
CC(=O)N1CCN(C(=O)Nc2c[nH]c3ccccc23)CC1	6.1*	8.8*	102	-115

Entries shown so far that contain a COOH group:
SMILES	Sa growth 42C	Sa growth 42C second temp	GIV-Gai inh	HCMV UL50-53 inh
CC(C(=O)O)n1c2ccccc2c2cnn(C)c(=O)c21 (stereo not drawn)	101	87	98	·
O=C(O)CCC(=O)N1N=C(c2c(-c3ccccc3)c3cc(Cl)ccc3[nH]c2=O)CC1c1ccccc1 (stereo not drawn)	·	·	101	-15
Cc1c(CNC2CCCCCC2)c(C(=O)O)c(C)n1Cc1ccc(F)cc1Cl	109	91	100	-16
O=C(O)CCC(=O)N1N=C(c2ccccc2)CC1c1ccc2nccnc2c1 (stereo not drawn)	116	75	103	-38

Arranged by the number under GIV-Gai inh (smallest number first): 3 from the list above
Molecule	GIV-Gai inh
COc1ccc(C(C)(C)C)cc1S(=O)(=O)N1CCN(c2cc(N(C)C)nc(C)n2)CC1	99
Cc1cccc(-c2nnc(C3CCN(S(=O)(=O)c4cccc(Cl)c4)CC3)o2)c1	103
Cc1cccc2sc(NC(=O)CN(C)S(=O)(=O)c3cccs3)nc12	109

Additional records follow:
SMILES	Sa growth 42C	Sa growth 42C second temp	GIV-Gai inh	HCMV UL50-53 inh
Cc1cc(=O)n2[nH]c(-c3ccccc3)nc2n1	·	·	104	-5
O=C1CS(=O)(=O)C(c2cccnc2)N1c1ccccc1 (stereo not drawn)	164	93	108	-3
C=CCN1C(=O)C2Cc3c([nH]c4ccccc34)C(C)N2C1=S (stereo not drawn)	102	106	123	-4
COc1ccccc1/C=C1\SC(=S)N(CCC(=O)Nc2sc3c(c2C(N)=O)CCCC3)C1=O	·	·	101	-24
CCn1c(SCC(=O)Nc2sccc2C(N)=O)nnc1-c1ccco1	91	85	·	-16
Cc1cc(C)c(NC(=O)Cn2c(=O)n(-c3ccc(F)cc3)c(=O)c3c(C)c(C(=O)N(C)C)sc32)c(C)c1	102	86	101	·
COC(=O)c1ccc(COC(=O)c2cccs2)cc1	96	112	104	4
Cc1ccc(CSCc2ccc(C(=O)NCCc3ccccc3)o2)cc1	103	76	104	·
CN(C)c1ccc(-c2n(C)c3ccccc3[n+]2C)cc1	75	83	108	·
Fc1ccc2c(c1)-c1nc(-c3ccccc3)cc(-c3ccccc3)c1CO2	109	91	105	-3

Assay outcomes: PubChem, ICCB-Longwood Screening Facility, Harvard Medical School
